Vaccinia mCherry = qHTS for Stage-Specific Inhibitors of Vaccinia Orthopoxvirus: mCherry Reporter Primary qHTS; Vaccinia virus mCherry reporter infection, fluorescence; about a quarter of the inactives have no number; Potency, µM (highest dose often 36.5 µM), inactives show at the highest dose activity change, negative = inhibition, hits mostly inhibitors; 310,000 tested, 0.63% active; active = well fitted inhibition curve with a large enough effect; inconclusive = small, poorly fitted or top-dose-only effect; inactive = no such curve, though single readings can be large or run the other way; tested in A549 cells; further: nearly all actives have a fitted effect of over 35% in size; inactives centre near -10
VACV Venus inh = qHTS for Stage-Specific Inhibitors of Vaccinia Orthopoxvirus: Venus Reporter Primary qHTS | Vaccinia virus Venus reporter expression, fluorescence | Potency, µM (titrated, usually from 36.5 µM), inactives show top-dose activity change, negative = inhibition, most hits filed as inhibitors | 330,000 tested, 0.46% active | AID 720580, 2013; active means well fitted inhibition curve with a large enough effect; inconclusive means small, poorly fitted or top-dose-only effect; inactive means no such curve, though single readings can be large or run the other way; tested in A549 cells; further: nearly all actives have a fitted effect of over 30% in size; inactives centre near -10
* hit, by the source's call; i = inactive; ? = inconclusive; . = not tested or not shown; & = joins results of further samples; [ ] = dose if it differs, or a comment. On the % scale 0 is the no-effect control and ±100 the full control effect; potency means the concentration at half of the fitted maximal effect.

Every second line gives: Vaccinia mCherry | VACV Venus inh
Cc1cc(NC(=O)c2cccc(F)c2)ncc1NC(=O)c1ccco1
    -6% | 1%
O=C(Oc1cccc(F)c1)c1ccc2c(=O)n3c(nc2c1)CCC3
    -13% | -12%
O=C(NCCN1CCCC1)c1ccc(Cl)cc1Cl
    -13% | -3%
O=C(NC1CCS(=O)(=O)C1)c1ccc(S(=O)(=O)N2CCCCC2)cc1 (configuration not stated)
    12% | 3%
COc1ccc(CSc2n[nH]c(C)n2)cc1[N+](=O)[O-]
    i | -1%
CCc1ccccc1N(CC(=O)NCCc1ccccc1)C(=O)CCC(=O)Nc1ccccn1
    -21% | -14%
CCOC(=O)N1CCC(NC(=O)C2CCN(C(=O)c3cc4sccc4n3CC)CC2)CC1
    -26% | -21%
Cc1ccccc1OP(=O)(Oc1ccccc1C)N1CCOCC1
    27% | 8%
COc1ccc(CCNC(=O)[C@H](CCSC)NC(=O)N2CCn3c2nc2ccccc23)cc1OC
    i | -14%
CCn1c2ccccc2c2cc(NC(=O)CSc3nnc(-c4cccc(Cl)c4)o3)ccc21
    -16% | -8%
Cc1[nH]c2ccccc2c1C1(O)C(=O)N(Cc2ccc(Cl)cc2)c2ccccc21 (configuration not stated)
    -8% | -9%
O=c1[nH]c(N2CCCCC2)nc2ncn(Cc3ccccc3)c12
    -6% | -14%
COc1ccc(-n2c(SCC(=O)N/N=C(\C)c3cccnc3)nc3ccccc3c2=O)cc1
    i | -13%
CCN(C(=O)Cn1nc(Cc2cccnc2)c2ccccc2c1=O)c1cc(C)ccc1C
    -18% | -8%
c1ccc(OCCCc2nc(-c3cccnc3)no2)cc1
    -14% | -9%
CN(C)CCn1c(NC(=O)c2ccc(Cl)cc2)nc2ccccc21
    -9% | -23%
Cc1ccccc1NC(=O)Cc1nc(COC(=O)c2cc([N+](=O)[O-])ccc2NCCO)cs1
    i | -15%
OC[C@H]1OC(O)[C@H](O)[C@@H]1O (some centres not stated)
    i | -13%
Nc1ccc2ccc(O)cc2c1
    ? | -3%
CCOC(=O)c1cc2oc(C(c3nnnn3C3CCCCC3)N3CCOCC3)cc2[nH]1 (configuration not stated)
    ? | -30%
COc1ccc(N2CCN(C(=O)CSc3nnc(C4CC4)n3C3CC3)CC2)cc1
    i | -4%
C=CCN(CC=C)C(=S)Nc1cc(Cl)ccc1OC
    0% | -13%
O=C(CSc1nnnn1-c1ccc(Cl)cc1)N1CCNC1=O
    -22% | -24%
Cn1c(CC(=O)Nc2ccccc2C(F)(F)F)c(Sc2ccccc2)c2ccccc21
    -4% | -7%
c1ccc(CNc2nc(NCc3ccccc3)c3ccccc3n2)cc1
    -13%[7.34 µM] | -13%[7.34 µM]
CCn1c(=O)c2cc(S(=O)(=O)NC3CCCCC3)ccc2n(CC)c1=O
    -6% | -18%
CN1CCc2c(sc3c2C(=O)NC(c2ccc(OC(=O)c4ccc(Cl)cc4)cc2)N3)C1 (configuration not stated)
    -13% | 1%
COc1ccc(-n2c(Cc3ccccc3)nnc2SCc2nc(-c3cccs3)no2)cc1
    10% | 10%
Cc1cc(-c2nnc(CCC(=O)N(CC3CCC3)CC3CCCO3)o2)no1 (configuration not stated)
    -12% | 1%
CCOCCCNC(=O)C(NC(=O)c1ccc(NC(C)=O)cc1)c1ccc(OC)cc1 (configuration not stated)
    -14% | -8%

Some of the entries so far, in CSV form:
molecule,Vaccinia mCherry,VACV Venus inh
Nc1ccc2ccc(O)cc2c1,?,-3%
CCOC(=O)c1cc2oc(C(c3nnnn3C3CCCCC3)N3CCOCC3)cc2[nH]1 (configuration not stated),?,-30%

(list continues)
Every second line gives: Vaccinia mCherry | VACV Venus inh
NS(=O)(=O)c1ccc(NC(=O)COC(=O)CCc2ccccc2)cc1
    -19% | -8%
CCc1ccc([C@H]2[C@@H]3C(=O)C[C@@H]4C(=O)N(C)C(=O)[C@@H]4[C@@H]3CN2S(=O)(=O)c2ccc(C)cc2)cc1
    i | 0%
CCOC(=O)CCSc1nc(C)c2ccccc2n1
    -15% | -10%
CCOc1ccccc1Nc1nc(-c2ccc(C)cc2)c(CC(=O)O)s1
    i | -5%
Cc1ccc(S(=O)(=O)n2nc(OC(=O)C(C)(C)C)cc2N)cc1
    -1% | -22%
COc1ccccc1N1CN(CCc2ccccc2)CNC1=S
    -19% | -12%
COc1cc(NS(=O)(=O)c2ccc(NC(=S)NC(=O)c3sc4ccccc4c3Cl)cc2)ncn1
    -15% | -5%
Cc1cccc(CSc2nnnn2-c2ccccc2)c1
    -3%[1.46 µM] | -7%
O=C(O)c1cc2ccccc2oc1=O
    -11% | -13%
COc1ccc(NC(=O)C2(C)Cc3c(-c4ccccc4)ccnc3O2)cc1OC (configuration not stated)
    ? | -26%
N#C/C(=C\c1ccc(N2CCOCC2)o1)C(=O)NCCc1ccccc1
    ? | -12%
C#CCOc1ccc2c(C)cc(=O)oc2c1
    -15% | 0%
O=C(CNc1cccc(Cl)c1)c1ccc(Cl)cc1
    i | -9%
COc1cc2c(cc1OC)CN(C(=O)CCCOc1ccc(Cl)cc1Cl)CC2
    -7% | -18%
Cc1cc(C(=O)N/N=C/c2ccc(-c3ccc(C)c(Cl)c3)o2)n[nH]1
    -5% | -8%
CCCNC(=O)OC1CC2CC1[C@H]1CCCCN1C2=O (some centres not stated)
    4% | -13%
COc1ccc(-c2c(C)c3cc(O)ccc3oc2=O)cc1
    -25% | -25%
Nc1nc(-c2cccnc2)nc(N2CCCCC2)n1
    . | -11%
O=C(Cc1ccc2c(c1)OCO2)NN=Cc1ccc([N+](=O)[O-])o1
    ? | ?
Cc1nnc(SCC(=O)NNC(=O)c2ccc(F)cc2)n1Cc1ccccc1
    -1% | -1%
CC(C)(C)Nc1nc(-c2ccc3c(c2)CCN3C(=O)C2CC2)cs1
    ? | -7%
CCN(CC)C(=O)C1CCCN(c2ccccc2[N+](=O)[O-])C1 (configuration not stated)
    i | -13%
O=S(=O)(c1ccc(NC(=S)NCCc2ccccc2)cc1)N1CCOCC1
    -8% | -3%
COc1ccc(CNC(=O)[C@H](C)NC(=O)C2CCN(C(=O)[C@H](CCSC)NC(=O)OC(C)(C)C)CC2)cc1
    4% | -4%
CCCNC(=O)c1ccc(S(N)(=O)=O)cc1
    -7% | 1%
CCCS(=O)(=O)N1CCC(C(=O)NCCc2ccc(C)cc2)CC1
    . | -13%
C/C=C/c1ccc2c(c1)O[C@H](CN(C)C(=O)NC1CCCC1)[C@H](C)CN([C@H](C)CO)S2(=O)=O
    -6% | -22%
COc1ccc(Br)cc1S(=O)(=O)N1CCN=C1C
    . | -23%
CCCn1nnc(NC(=O)c2ccc(-c3cc(Cl)ccc3Cl)o2)n1
    -3% | -17%
O=C(Cn1cc2c(n1)CCCC2)NC1CCN(Cc2ccccc2)CC1
    -2% | 2%

Continued:
Every second line gives: Vaccinia mCherry | VACV Venus inh
C=C1C2CC[C@@]3(C)C(c4ccoc4)OC(=O)C[C@@]13OC1CC(O)C(C)(C)C(CC(=O)OC)[C@@]12C (some centres not stated)
    -15%&-18% | -3%&-5%
COc1ccc(-c2nc3scc(CCNS(=O)(=O)c4cc(F)ccc4OC)n3n2)cc1OC
    -10% | -8%
Cc1ccc(C(=O)N(CC(=O)Nc2ccc(Cl)c(Cl)c2)Cc2ccco2)cc1
    -5% | -13%
CS(=O)(=O)N(CC(=O)N/N=C/c1cccc2c1OCCO2)c1ccccc1Br
    . | -27%
CCCCCCC1CCC(C(=O)NC(C(=O)O)C(C)C)CC1 (configuration not stated)
    -9% | -8%
CCNC(=O)C1CCCN(C(=O)c2cccc(C(F)(F)F)c2)CC1 (configuration not stated)
    38%[activator] | 3%
CCN1C(=O)[C@H]2[C@H]3CN=C(SCc4ccc(Cl)cc4)N3[C@@](CC)(C(=O)OC)[C@H]2C1=O
    -5% | -1%
COc1cccc(CNC(=O)Cn2cc3c(n2)-c2c(oc(C(=O)N4CCOCC4)c2C)CC3)c1
    -14% | -11%
CCOC(=O)CSc1nnc2cc(C)c3ccccc3n12
    -19% | 2%
N/C(=N\OC(=O)COc1ccccc1)c1ccc(Cl)cc1
    -13% | -11%
CN(CCCC1CCCC1)C(=O)c1cc(COc2ccc(F)cc2F)on1
    -8% | -21%
CCn1cc(C(=O)NCCCN2CCC(C)CC2)c2cc(OC)c(OC)cc2c1=O
    -3% | -2%
O=C1c2cccc3cccc(c23)C(=O)N1CCN1CCN(CC(O)COCc2ccc(Cl)cc2)CC1 (configuration not stated)
    11µM* | ?
CCOc1ccccc1NC(=O)c1cnc2n(c1=O)CCS2
    -16% | -9%
CCN(c1cccc(C)c1)S(=O)(=O)c1c(C)nc2sc(C)cn2c1=O
    -9% | -12%
[N-]=[N+]=CC(=O)c1ccnc(C(=O)C=[N+]=[N-])c1
    -13% | -9%
CCOC(=O)c1c(NC(=O)Cn2nnc(-c3ccc(Cl)cc3)n2)sc(CC)c1C
    . | -11%
CS(=O)(=O)c1ccc(-c2cnc3c(NC=O)cc(-c4ccsc4)cn23)cc1
    ? | -10%
CN1CCN(c2ccc([N+](=O)[O-])c(Sc3nncn3C)c2)CC1
    i | -7%
Cc1nc(N2N=C3/C(=C/c4ccc(F)cc4)CCCC3C2c2ccc(F)cc2)sc1C(=O)N(C)C (configuration not stated)
    ? | ?
CCC(C)C(N)C(=O)N1CCCC1C(=O)NC(C(=O)O)C(C)CC (configuration not stated)
    -14% | -3%
COc1cccc(CNC(=O)C2(c3cccs3)CCOCC2)c1
    -4% | 2%
CC(C)C1OC2(C)OC(=N)C1(C#N)C(C#N)(C#N)C2c1ccccc1 (configuration not stated)
    -9% | 2%
S=C(NCc1ccccc1)NNc1nc2ccccc2[nH]1
    -16% | -20%
Cc1ccc(S(=O)(=O)N/N=C\c2cccnc2)cc1
    -10% | -12%
CC(=O)Nc1cc([As](=O)(O)O)ccc1O
    -13% | -11%&-8%
Cc1ccc(C)c(N2CCN(C(=O)c3ccc(N4CCOCC4)c([N+](=O)[O-])c3)CC2)c1
    ? | -12%
O=C1CCc2cc(S(=O)(=O)NCc3ccc(F)cc3)cc3c2N1CCC3
    i | -20%
O=C(c1ccc(-n2cnnn2)cc1)N1CCCCC1
    -2% | 3%
COc1ccccc1NC(=O)Cn1c(=O)sc2ccccc21
    . | -10%

In the list so far, these contain a CF3 group.
Every second line gives: Vaccinia mCherry | VACV Venus inh
Cn1c(CC(=O)Nc2ccccc2C(F)(F)F)c(Sc2ccccc2)c2ccccc21
    -4% | -7%
CCNC(=O)C1CCCN(C(=O)c2cccc(C(F)(F)F)c2)CC1 (configuration not stated)
    38%[activator] | 3%

(continued)
Every second line gives: Vaccinia mCherry | VACV Venus inh
CCN(CC)c1ccc(C=Nc2ccc(C)cc2)c(O)c1
    i | -9%
Cc1cc(C)c(S(=O)(=O)N2CCN(S(=O)(=O)N3CCC(C)CC3)CC2)c(C)c1
    -21% | 0%
CC(OC(=O)c1nc(Cl)ccc1Cl)C(=O)Nc1ccc2c(c1)OCCO2 (configuration not stated)
    i | -6%
CCCCN(C(=O)c1ccc(C)c(S(=O)(=O)N2CCOCC2)c1)c1c(N)n(CCCC)c(=O)[nH]c1=O
    -5% | 3%
COc1ccc(NC(=O)CN(C)C(=O)c2cc(C)oc2C)cc1
    -24% | -10%
CC(=O)N1N=C(c2ccc(Br)cc2)CC1c1ccc(Br)cc1 (configuration not stated)
    -3% | -10%
COCCCNC(=O)c1c(-c2ccccc2)noc1C
    . | -6%
CCCCN(C(=S)Nc1ccc(F)cc1)c1c(N)n(CCC)c(=O)[nH]c1=O
    i | -6%
CCO[C@H]1OC(C(=O)N2CCCCCCC2)=C[C@@H](C)[C@@H]1CCCO
    -21% | 1%
Cc1cccc(C(=O)Nc2ccccc2OCc2cc(=O)n3c(C)csc3n2)c1
    -9% | -1%
Cc1cccc(C)c1NC(=O)CC(NCc1ccco1)C(=O)O (configuration not stated)
    -15% | -6%
Cc1ccc(S(=O)(=O)N2CCCCC2)cc1NC(=O)COC(=O)C1CC2C=CC1C2 (configuration not stated)
    -9% | -7%
COc1ccc(CNC(=O)c2ccc(-c3nc(CSc4ccccc4)c(C)o3)cc2)cc1
    -12% | -14%
CN(C)C(CNc1ccc(S(C)(=O)=O)cc1[N+](=O)[O-])c1ccccc1 (configuration not stated)
    -1% | -24%
Cc1ccc(-n2nc3c(N4CCC(C(=O)NC5CCC(C)CC5)CC4)nnc(C)c3c2C)cc1 (configuration not stated)
    ? | ?
CN(C)CC(CCC(CN(C)C)C(=O)c1ccccc1)C(=O)c1ccccc1 (configuration not stated)
    ? | 11µM*
COCCCNC(=O)CCCn1c(=O)c2ccccc2n(CC(=O)Nc2ccc(C)cc2Cl)c1=O
    -7% | -3%
CN(C)C=C1C(=O)c2ccccc2C1=O
    . | -26%
CCCSc1nnc2nc(C)cc(C)n12
    -15% | -10%
COC(=O)C1=C(C)N(c2cc(C)cc(C)c2)/C(=C/c2ccc(O)cc2)C1=O
    ? | ?
O=C(Nc1ccccc1)Nc1csc2ccccc12
    -12% | -9%
CCN(CC)c1ccc(NC(=O)COC(=O)/C=C/c2nc3ccccc3s2)cc1
    -26% | -12%
CC1=C(C(=O)N(C(C)C)C(C)C)CC(CC(=O)NCCCCc2ccccc2)C(=O)N1CCC1=CCCCC1 (configuration not stated)
    12% | -15%

High-throughput results as filed in PubChem.
